# Screening data (PubChem)
# Mtb growth = Confirmatory growth inhibition assay against Mycobacterium tuberculosis H37Rv, potency (AID 1949). most inactive calls were filed without a number and no value below 0 was filed. one-dose inhibition, % at 10 µg/mL; IC50 in µg/mL for titrated hits. 100,000 tested, 1.6% active;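 active = confirmed in a dose series; inconclusive = about 50% or more but not retested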;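 note: bacteria grown 7 days with compound before Alamar blue readout; 0% = untreated bacteria and 100% = reference antibiotic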
# * = called active by the depositor; i = inactive; ? = inconclusive.
cpd	Compound	Mtb growth
1	COc1cccc(NC(=O)CC2OCCN(Cc3ccccc3)C2=O)c1 (stereo not given)	i
2	NC(=O)c1ccccc1NC(=O)Nc1cccc(Cl)c1Cl	i
3	COc1c(C)cc(Br)cc1C(=O)Nc1ccccc1OC(F)F	i
4	COc1cc(C2NC(=O)NC(C)=C2C(=O)OC(C)C)cc(Cl)c1O (stereo not given)	i
5	O=C(CC1Sc2ccc(C(F)(F)F)cc2NC1=O)Nc1ccc(SC(F)F)cc1 (stereo not given)	i
6	CCn1c(SCC(=O)Nc2ccccc2C(C)C)nnc1-c1cccc(C)c1	i
7	Cc1ccc(C(=O)NC(C)c2nnc(SCC(=O)Nc3ccccc3F)n2C)cc1 (stereo not given)	i
8	O=C(COc1ccc2c(c1)CCCC2)Nc1cc(Cl)ccc1Cl	i
9	CCn1nc(NS(=O)(=O)c2ccccc2)c2cc3cccc(C)c3nc21	0%
10	Cc1cc(C)c(S(=O)(=O)N2CCOCC2)cc1Br	i
11	Cc1ccc(CCNS(=O)(=O)c2ccc(C)cc2)cc1	1%
12	CCn1c(COc2ccccc2OC)nnc1SCC(=O)NCCc1ccccc1	i
13	Cc1ccc(N2C(=O)NC(=O)C(CCc3ccccn3)(Cc3cccs3)C2=O)cc1 (stereo not given)	i
14	CC(=O)NC1C(=O)N(Cc2ccccc2)c2ccc(C)cc21 (stereo not given)	i
15	CCCC(=O)N1CCN(c2ccc(NC(=O)c3cccs3)cc2Cl)CC1	40%
16	O=C(CCc1ccccc1)Nc1nnc(SCc2ccc(Cl)c(Cl)c2)s1	1%
17	C=CCn1c(Cc2ccccc2)nnc1SCC(=O)Nc1cc(Cl)c(Cl)cc1Cl	0%
18	CN(CC(=O)NC1CCCCC1)S(=O)(=O)c1ccccc1	1%
19	O=S(=O)(NCc1ccccc1)N1CCCCC1	i
20	Cc1ccc(SC(C)C(=O)Nc2ccc3c(c2)OCO3)cc1 (stereo not given)	i
21	O=C(O)CSCc1c(Cl)cccc1Cl	i
22	COC(=O)c1ccc(NC(=S)N2CCOCC2)cc1	i
23	CCN(C(=O)c1cc2cc(OC)ccc2oc1=O)c1cccc(C)c1	i
24	CCc1c(C)sc(NC(=O)c2cc(OC)c(OC)cc2OC)c1C#N	i
25	COc1cc(C=O)c(Br)c(OC)c1OC	1%
26	CCOC(=O)c1ccc(NC(=O)CC2C(=O)N(c3ccc(F)cc3)C(=O)N2Cc2ccc(F)cc2)cc1 (stereo not given)	i
27	CN1CCN(C(=S)Nc2ccc(S(N)(=O)=O)cc2)CC1	i
28	COC(=O)c1c(NC(=S)n2cc(C)cn2)sc2c1CCC(C)C2 (stereo not given)	i
29	Cc1cc(NC(=S)N(C)C)ccc1Br	i
30	COc1ccc(NC(=O)CNC(=O)c2ccc(C(C)(C)C)cc2)cc1	i
31	Cc1ccccc1OCc1nnc(SCC(=O)N2CCN(c3cccc(Cl)c3)CC2)n1C	i
32	CCc1ccc(C(=O)NC(=S)Nc2ccc(O)c(-c3nc4ccccc4s3)c2)cc1	4%
33	CC(=O)Nc1ccc(S(=O)(=O)N2CCN=C2c2ccccc2)cc1	0%
34	Cc1cccnc1NC(=O)C(C)Oc1ccccc1 (stereo not given)	i
35	O=C(O)c1cccnc1SC1CC(=O)N(c2ccc(F)cc2)C1=O (stereo not given)	1%
36	CCOC(=O)c1ccc(NC(=O)CSc2ccc(F)cc2)cc1	i
37	O=C(CSc1c(-c2ccccc2)c2cc(Cl)ccc2[nH]c1=O)N1CCOCC1	i
38	Cc1ccc(OCCN2C(=O)NC(C)(C)C2=O)c(I)c1	i
39	C=CCc1ccccc1OCC(O)CNC1CCCC1 (stereo not given)	i
40	COc1ccc(OC)c(N(CC(=O)Nc2ccccc2C)S(C)(=O)=O)c1	i
41	CCC(C)(C)NC(=O)c1ccc(C)c(C)c1	i
42	COC(=O)c1ccccc1NC(=O)c1ccc(Cn2cc(Cl)cn2)cc1	i
43	COc1ccc([N+](=O)[O-])cc1NC(=O)C1CCC(=O)N1S(=O)(=O)c1ccc(C)cc1 (stereo not given)	i
44	CN(CCOc1ccc2ccccc2c1)Cc1ccccc1	5%
45	O=S(=O)(Nc1ncccn1)c1ccc(NC(=S)NCc2cccnc2)cc1	i
46	CCOC(=O)c1sc(NC(=O)c2ccc3c(c2)OCO3)nc1C	i
47	COc1ccc(S(=O)(=O)Nc2cccc(-c3cn4ccccc4n3)c2)cc1	i
48	CCC(=O)N1c2ccccc2NC2=C(C(=O)CCC2)C1c1cccc([N+](=O)[O-])c1 (stereo not given)	i
49	CCN(C(=O)Cn1nnc(-c2ccccc2)n1)c1ccccc1	i
50	Cc1cc(C(C)(C)C)ccc1OCCCCN1CCCC1	47%

# (next part)
cpd	Compound	Mtb growth
51	O=C(Cc1cccs1)Nc1ccc(F)c(Cl)c1	i
52	COc1ccc(OC)c(C(=O)CCC(=O)Nc2ccc(Cl)cc2)c1	i
53	CCOC(=O)c1cc(-c2ccccc2)sc1NC(=S)NC1CCN(Cc2ccccc2)CC1	0.77µg/mL*
54	COc1ccc(OCCCC(=O)Nc2ccc(I)cc2)cc1	i
55	CCOC(=O)c1sc2ncn(Cc3ccccc3Cl)c(=O)c2c1C	i
56	CCc1cc(=O)oc2c(C)c(OCC(=O)Nc3ccc(C)cc3)ccc12	i
57	Cc1nc(NC(=S)NC(=O)c2ccc(-c3cccc(Cl)c3Cl)o2)ccc1Br	i
58	COc1cccc(C(=O)NC(=S)Nc2cccc(C(=O)O)c2)c1	i
59	COc1ccc(C(C)C)cc1S(=O)(=O)NCCN1CCOCC1	i
60	Cc1ccc(Cl)c2c1[nH]c1nc3ccccc3nc12	i
61	Cc1cccc(OCC(=O)N2CCN(c3ccc(F)cc3)CC2)c1	i
62	CC(Nc1nc(N2CCN(CCO)CC2)nc2ccccc12)c1ccccc1 (stereo not given)	i
63	COc1ccc(-c2c(C)oc3c(C)c(OC)ccc3c2=O)cc1	0%
64	O=C(Cc1ccc([N+](=O)[O-])cc1)OCc1ccc(Cl)c(Cl)c1	i
65	Cc1ccc(-c2noc(COc3cc(C)c(Cl)c(C)c3)n2)cc1	2%
66	CC(=O)N1CCN(C(=S)c2ccc([N+](=O)[O-])cc2)CC1	2%
67	O=C(c1sc2cccc(F)c2c1Cl)N1CCOCC1	3%
68	Oc1ccccc1-c1nc2c3c4c(sc3ncn2n1)CCCCC4	i
69	CCOCC(=O)Nc1nnc(C2CCCCC2)s1	i
70	COc1ccc(C)cc1N(CC(=O)NCc1ccco1)S(C)(=O)=O	i
71	Cc1ccc2[nH]c3c(c2c1)CCCC3C#N (stereo not given)	11%
72	Brc1ccc(-c2nc(-c3ccccn3)no2)o1	6%
73	CC(C)(C)c1ccc(OCC(=O)Nc2ccc(F)c(Cl)c2)cc1	14µg/mL*
74	CCn1ncc(Br)c1C(=O)Nc1ccccc1C(F)(F)F	i
75	COc1cc(S(=O)(=O)Nc2ccc(C)cc2)ccc1NC(=O)c1ccc([N+](=O)[O-])cc1	i

# Some of these compounds in order of length of the SMILES, rising:
cpd	Compound	Mtb growth
71	Cc1ccc2[nH]c3c(c2c1)CCCC3C#N (stereo not given)	11%
63	COc1ccc(-c2c(C)oc3c(C)c(OC)ccc3c2=O)cc1	0%
62	CC(Nc1nc(N2CCN(CCO)CC2)nc2ccccc12)c1ccccc1 (stereo not given)	i

# Continued.
cpd	Compound	Mtb growth
76	CN(C)CCC(=O)c1ccc(Cl)c(Cl)c1	i
77	CCOC(=O)C1=C(c2ccccc2)NC(=S)NC1c1cc(OC)ccc1OC (stereo not given)	i
78	CC1CN(c2cc3nccnc3cc2F)CC(C)O1 (stereo not given)	i
79	Cc1cc(C)nc(SCC(=O)Nc2ccccc2C(N)=O)n1	i
80	COc1ccc(OC)c(NC(=O)CN(c2ccc(OC)c(OC)c2)S(C)(=O)=O)c1	i
81	CC(C)C(=O)Nc1cccc(NC(=O)c2ccc([N+](=O)[O-])cc2)c1	i
82	O=C(Nc1ccc(Cl)c(Cl)c1)Nc1ccccn1	1%
83	O=C(Nc1nc2ccc(S(=O)(=O)N3CCCC3)cc2s1)C1CCCO1 (stereo not given)	i
84	O=C(c1ccc(Cl)cc1)N1CCC(C(=O)N2CCC(Cc3ccccc3)CC2)CC1	i
85	N#Cc1ccccc1Sc1ccccc1C(=O)Nc1ccc(Br)cn1	i
86	Cc1ccc(N(C(C)C(=O)N2CCCCCC2)S(C)(=O)=O)cc1 (stereo not given)	i
87	CCCCC(=O)Nc1ccc(NC(=O)COc2ccc([N+](=O)[O-])cc2)cc1OC	0%
88	CCn1c(CNC(=O)c2ccccc2F)nnc1SCc1ccc(Br)cc1	i
89	O=c1c(C=NCCN2CCOCC2)c(C(F)(F)F)[nH]n1-c1nc2ccccc2s1	i
90	CCNC(=S)Nc1ccc(F)c(Cl)c1	i
91	Cc1ccc(NC(=S)/N=C(\N)Nc2nc(C)c3cc(C)c(C)cc3n2)cc1C	20%
92	Cc1nc2ccc(Br)cn2c(=O)c1Cl	2%
93	Cc1cc([N+](=O)[O-])ccc1NC(=O)CSc1nnc(-c2ccccc2Cl)n1C	i
94	O=C(Nc1cc(C(F)(F)F)ccc1F)c1ccc2c(c1)OCCO2	i
95	O=C(NCc1ccc(C(=O)O)cc1)Nc1ccccc1C(F)(F)F	i
96	CCOC(=O)C(=O)Nc1ccc(C(C)(C)C)cc1	?
97	CCOc1ccc(C(C)=O)cc1CSc1nc(C)cc(=O)[nH]1	i
98	O=C(Nc1c(-c2ccccc2)nc2ncccn12)c1ccccc1	i
99	COc1ccc(S(=O)(=O)N(CC(=O)N2CCC(C)CC2)c2ccc(F)cc2)cc1OC	i
100	O=C(Cc1ccc(Br)cc1)c1ccc(O)cc1O	1%

# Six compounds drawn at random from those above:
cpd	Compound	Mtb growth
96	CCOC(=O)C(=O)Nc1ccc(C(C)(C)C)cc1	?
94	O=C(Nc1cc(C(F)(F)F)ccc1F)c1ccc2c(c1)OCCO2	i
100	O=C(Cc1ccc(Br)cc1)c1ccc(O)cc1O	1%
84	O=C(c1ccc(Cl)cc1)N1CCC(C(=O)N2CCC(Cc3ccccc3)CC2)CC1	i
79	Cc1cc(C)nc(SCC(=O)Nc2ccccc2C(N)=O)n1	i
76	CN(C)CCC(=O)c1ccc(Cl)c(Cl)c1	i

# (cont.)
cpd	Compound	Mtb growth
101	CC(C)Cc1ccc(S(=O)(=O)Nc2ccc(F)cc2F)cc1	2%
102	CCOC(=O)C1CCN(C(=O)C2CCN(S(=O)(=O)c3c(C)cc(C)cc3C)CC2)CC1	3%
103	COc1ccc(NC(=O)C2CCN(C(=O)c3cccs3)CC2)cc1Cl	i
104	CNC(=S)Nc1ccccc1-c1ccccc1	2%
105	Cc1cc(-c2nc3ncccc3o2)ccc1NC(=S)NC(=O)c1ccccc1	i
106	COc1ccc(Cl)cc1NC(=O)COc1ccccc1Cl	i
107	COc1ccc(S(=O)(=O)ON2C(=O)c3ccccc3C2=O)cc1	i
108	CSc1nc2ccc(S(=O)(=O)N3CCc4ccccc43)cc2s1	2%
109	CC(C)C(NC(=O)c1ccccc1)c1n[nH]c(=S)n1C (stereo not given)	i
110	Cc1cccn2c(=O)c3cc(S(=O)(=O)c4ccc(Cl)cc4)c(=N)n(C4CCCC4)c3nc12	i
111	Cc1onc(-c2ccccc2Cl)c1C(=O)NC(=S)NCCc1ccccc1	i
112	CCOC(=O)Cc1csc(NC(=O)C(c2ccccc2)c2ccccc2)n1	i
113	COc1cc(OC)cc(C(=O)NNC(=O)NC2CCCCC2)c1	i
114	COc1ccccc1CNC(=S)NCc1ccc(Cl)cc1	i
115	Cc1cc(=O)[nH]c(SCC(=O)OC2CC(C)CCC2C(C)C)n1 (stereo not given)	i
116	CCn1ncc(CNC(=O)c2cnn3c(C(F)F)cc(-c4ccc(OC)cc4)nc23)c1C	i
117	O=c1c(-c2ccccc2)coc2c(CN3CCOCC3)c(O)ccc12	i
118	C=CCN1C(=S)N(c2ccc(Br)cc2)C2CS(=O)(=O)CC21 (stereo not given)	i
119	CC1(C)C2CCC1(C)C(NC(=O)c1cc3ccccc3oc1=O)C2 (stereo not given)	1%
120	O=C(Nc1cccc(S(=O)(=O)N2CCOCC2)c1)c1csc2ccccc12	i
121	CCn1c(SCC(=O)Nc2ncc(C)s2)nnc1-c1ccccc1	i
122	Nc1ncnc(Sc2ccc(Cl)cc2)c1[N+](=O)[O-]	i
123	Cc1cccc(S(=O)(=O)Nc2ccccc2F)c1	1%
124	O=C(NC(=S)Nc1nc(-c2cccc3ccccc23)cs1)c1cccc(Cl)c1	20%
125	COC(=O)c1ccc(C(=O)OC)c(NC(=O)C(C)Oc2ccccc2)c1 (stereo not given)	i
126	CSc1ncc2c(c1C#N)CCCC2	0%
127	C=CCN1C(=O)C(Cc2ccc(OCC)cc2)S/C1=N/N=C/c1ccc(OC)c(OC)c1 (stereo not given)	0%
128	COc1ccc(S(=O)(=O)NCc2ccc(Cl)cc2)cc1C	i
129	Cc1c(Cl)cccc1NC(=S)NCCc1ccc(Cl)cc1	8%
130	CC(NC(=O)c1cc(Cl)ccc1NC(=O)c1ccco1)c1ccccc1 (stereo not given)	i
131	CC(C)NC(=O)COc1ccc(C(C)(C)C)cc1Br	8%
132	CC1CN(C(=O)COc2ccc(Cl)cc2Br)CC(C)O1 (stereo not given)	i
133	COc1nc2c(c(=O)n(C)c(=O)n2C)n1Cc1c(Cl)cccc1Cl	i
134	COC(=O)c1[nH]c2c(c1C)C(=O)CC(c1ccccc1)C2 (stereo not given)	2%
135	COc1ccc(NC(=O)Nc2ccccc2SC)cc1OC	i
136	O=C(NCc1ccco1)c1sc2cc(Cl)ccc2c1Cl	4%
137	Cc1ccc(NC(=O)CSc2nccc(=O)[nH]2)cc1	i
138	C=CCn1c(Cc2ccc(OC)cc2)nnc1SCC(=O)Nc1cc(F)ccc1C	i
139	COc1ccc(OCC(=O)N2CCN(S(C)(=O)=O)CC2)cc1	i
140	CC(=O)Nc1ccc(S(=O)(=O)N2c3ccc(F)cc3CCC2C)cc1 (stereo not given)	i
141	CCOC(=O)c1cc(-c2ccccc2)sc1NC(=S)N1CCN(c2ncccn2)CC1	i

# An excerpt; rates above refer to the full screens.
